TRPV1 PAM: enhances activation of the human vanilloid receptor TRPV1 | TRPV1-expressing cells, Fluo-8 calcium influx, capsaicin EC20 potentiation; host cell line not named in the record; control for the full effect not named in the record | 0.02% of 320,000 active | Q8NER1 | potentiation, % at 8.33 µM; active means potentiation above 80%; inconclusive means 30% to 80%; inactive means below 30%; further: 0% is about no effect
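Fluo-8 calcium influx in TRPV1-expressing cells, kinetic read (ex 480/em 520 nm). Compound added and read 3 min for agonist activity, followed by capsaicin at EC20 final and 2 min further read for enhancement.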
gsp agonist: activates gsp, the McCune-Albright syndrome mutation. gsp mutant cells, cAMP HTRF, 30 min; control for the full effect not named in the record. Potency, µM (titrated, usually from 76.9 µM), inactives show top-dose activation (cAMP increase), actives largely listed as activators. 0.13% of 340,000 active. AID 624287; active = well fitted activation curve with a large enough effect; inconclusive = small, poorly fitted or top-dose-only effect, or another doubt; inactive = no such curve, though single readings can be large or run the other way; cell line not stated here;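 further: phosphodiesterase inhibitor Ro 20-1724 added with compounds to block cAMP breakdown; potency means the concentration at half of the fitted maximal effect; nearly all actives have a fitted effect of over 60% in size; about a fifth of the inactives were tested at one dose only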
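Cells in DMEM/10% FBS with G418 were pretreated with compounds in DMSO plus […] (300 uM stock) for 30 min at 37C. cAMP was measured by HTRF (cAMP-d2 plus anti-cAMP antibody-K) after 30 min at room temperature.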
D2 potentiator: human D2 receptor positive allosteric modulation. P14416. DiscoveRx D2 beta-arrestin cells, luminescence, 90 min; 100% = 57 uM dopamine signal. potentiation, % (concentration not given with the values). 0.23% of 360,000 active. AID 624464; active = potentiation of 50% or more; inconclusive = 30% to 50%; inactive = 30% or less;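 further: compound concentration not given in the record; tested on top of an EC20 dose of dopamine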
Target sequence (P14416 whole entry, looked up): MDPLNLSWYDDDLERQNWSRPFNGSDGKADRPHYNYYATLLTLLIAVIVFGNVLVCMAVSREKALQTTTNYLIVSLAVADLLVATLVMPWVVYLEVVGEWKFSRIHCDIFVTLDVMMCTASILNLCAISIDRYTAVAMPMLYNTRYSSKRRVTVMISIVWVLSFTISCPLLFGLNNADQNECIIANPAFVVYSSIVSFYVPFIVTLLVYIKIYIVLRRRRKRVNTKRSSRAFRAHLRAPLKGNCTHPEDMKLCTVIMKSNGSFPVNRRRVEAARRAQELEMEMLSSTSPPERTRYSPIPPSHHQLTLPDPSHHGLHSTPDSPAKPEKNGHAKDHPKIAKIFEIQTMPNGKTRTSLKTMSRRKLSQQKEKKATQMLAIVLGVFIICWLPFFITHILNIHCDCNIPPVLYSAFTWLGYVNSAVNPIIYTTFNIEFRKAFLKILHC
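D2 cells co-treated with compound plus 50 nM dopamine (EC20) for 90 min at 37 deg C to detect potentiation. Beta-arrestin recruitment was read as enzyme-fragment luminescence after 1 h at ambient temperature. Full response was set by 57 uM dopamine.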
Sfp PPTase inh: blocks B. subtilis Sfp PPTase activity. 3.5% of 310,000 active. Potency, µM, for inactives: max response, negative = inhibition, hits mostly inhibitors. Biochemical Sfp PPTase activity, qHTS; active means well fitted inhibition curve with a large enough effect; inconclusive means small, poorly fitted or top-dose-only effect, or another doubt; inactive means no such curve, though single readings can be large or run the other way;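 further: the enzyme is Sfp with the accession as filed and its product quenches rhodamine fluorescence; potency means the concentration at half of the fitted maximal effect; 0% = enzyme reaction without inhibitor and -100% = no enzyme wells; top concentration of the series not given in the record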
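After 15 min at room temperature with compound, 15 nM Sfp received 5 uM rhodamine-CoA plus 12.5 uM BHQ-2-ybbR (50 mM Hepes pH 7.6, 10 mM MgCl2). Rate came from the fluorescence difference over 30 min, ex 525/em 598 nm.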
ClpP mod: qHTS Assay for Activators of ClpP; 1.9% of 340,000 active; ATP-dependent Clp protease proteolytic subunit (Bacillus subtilis (strain 168)), P80244; purified B. subtilis ClpP, FRET peptide cleavage, 20 min; Potency, µM (titrated, usually from 57.5 µM), for inactives: at the top dose activity change, negative = active; active = well fitted falling curve with a large enough effect; inconclusive = small, poorly fitted or top-dose-only effect; inactive = no such curve, though single readings can be large or run the other way; further: potency means the concentration at half of the fitted maximal effect; the source files actives as falling curves though it sought activators and does not explain the sign; nearly all actives have a fitted effect of over 65% in size; many hits overshoot -100%
Target sequence (P80244 whole entry, looked up): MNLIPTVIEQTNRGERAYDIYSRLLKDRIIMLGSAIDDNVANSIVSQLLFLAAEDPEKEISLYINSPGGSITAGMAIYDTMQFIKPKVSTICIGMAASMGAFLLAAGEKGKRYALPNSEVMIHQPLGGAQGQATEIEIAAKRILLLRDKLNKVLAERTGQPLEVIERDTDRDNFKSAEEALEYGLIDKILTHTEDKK
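FRET quenching reversal measured ClpP activation: 10 microg/mL B. subtilis ClpP at pH 8 with the FRET-FV decapeptide, read at 430 nm after 320 nm excitation. The 20-min minus 0-min signal was scaled between DMSO/no-enzyme wells and ADEP (5.8 microM final).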
gsp antagonist: gsp mutant antagonism; gsp-mutant cells, cAMP HTRF, 30 min; control for the full effect not named in the record; Potency, µM (doses to about 76.9 µM), without a hit: at the highest dose activity change, negative = inhibition, usual class: inhibitors; 0.4% of 340,000 active; AID 624288; active = falling curve of any shape with a large fitted effect; inconclusive = falling curve, mostly with a smaller effect; inactive = flat or rising curve; cell line not stated here;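 further: intracellular cAMP measured with PDE inhibitor Ro 20-1724 present during compound exposure; potency means the concentration at half of the fitted maximal effect; on the % scale 0 is the no-effect control and ±100 the full control effect; nearly all actives have a fitted effect of over 65% in size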
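Measurement of cellular cAMP by homogeneous time-resolved fluorescence following a 30 min compound exposure at 37C. The PDE inhibitor […] was present throughout; the assay buffer was DPBS with 0.05% BSA and 0.005% Tween 20.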
Menin-MLL FL inh: inhibitors of human menin-MLL interaction, wild-type MLL peptide; AID 1766; 290,000 tested, under 10 active; FP activity change, % at 61.4 µM; Fluorescence polarization, fluorescein-MLL peptide displacement from menin; inconclusive = falling polarisation curve, or a change in total fluorescence; inactive = total fluorescence flat and polarisation flat or rising; no compound was filed as active; the % refers to the polarisation; negative = inhibition;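 further: % of control where 0% means no effect; inhibitors lower the polarisation; unlabelled MLL peptide was the positive control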
Starred values were filed as active, the others as inactive; ? = inconclusive; . = not tested or not shown; [ ] = dose if it differs, or a comment. An unsorted share of the library; about 5.1% have a hit in one of these screens.

Start of the listing, in advance:
SMILES	TRPV1 PAM	gsp agonist	D2 potentiator	Sfp PPTase inh	ClpP mod	gsp antagonist	Menin-MLL FL inh
Fc1cccc(CN2CCN(Cc3nc(CCc4ccccc4)no3)CC2)c1	6	2%	-6	5%	-1.3%	-8%	-1.0
Cc1cccc(C)c1NC(=O)c1sc(N)nc1-c1ccccc1	-25	-58%[inhibitor]	-3	24%	0.4%	4%	-1.1
COc1ccc(CC(=O)Oc2ccc(C(C)(C)C)cc2)cc1S(=O)(=O)N1CCOCC1	4	-2%	-6	.	1.3%	-23%	.
Cc1ccc(S(=O)(=O)NCCC(=O)OCC(=O)N(Cc2ccccc2)C(C)(C)C)cc1C	-6	-6%	0	.	1.4%	-20%	.

This part in full, previewed entries included:
SMILES	TRPV1 PAM	gsp agonist	D2 potentiator	Sfp PPTase inh	ClpP mod	gsp antagonist	Menin-MLL FL inh
Fc1cccc(CN2CCN(Cc3nc(CCc4ccccc4)no3)CC2)c1	6	2%	-6	5%	-1.3%	-8%	-1.0
Cc1cccc(C)c1NC(=O)c1sc(N)nc1-c1ccccc1	-25	-58%[inhibitor]	-3	24%	0.4%	4%	-1.1
COc1ccc(CC(=O)Oc2ccc(C(C)(C)C)cc2)cc1S(=O)(=O)N1CCOCC1	4	-2%	-6	.	1.3%	-23%	.
Cc1ccc(S(=O)(=O)NCCC(=O)OCC(=O)N(Cc2ccccc2)C(C)(C)C)cc1C	-6	-6%	0	.	1.4%	-20%	.
Cc1cc(Cl)c2oc(C(=O)N(C)CCCCN3CCOCC3)c(C)c2c1	-4	-44%[inhibitor]	-24	-1%	.	-1%	3.6
CCC(=O)N1CCN=C1SCc1c(F)cccc1Cl	3	16%	-12	12%	-0.3%	6%	.
Nc1nc2ncc(C(=O)c3cc(Cl)cc(Cl)c3O)cc2s1	-15	7%[15.4 µM]	3	-13%	.	-5%	-11
COC(=O)c1sc(N2CCN(c3ccc(Cl)cc3)CC2)nc1N	7	-1%[15.4 µM]	-5	?	.	-12%	-6.5
Fc1ccccc1/C=C1\CCCC2=C1Nc1nnnn1C2c1ccccc1F (stereo unspecified)	14	-75%[inhibitor]	-5	-25%	-8.1%	12%	1.5
CS(=O)(=O)c1cccc(C(=O)Nc2cccc(-c3nc4ccccc4[nH]3)c2)c1	11	3%	-9	2%	0.4%	-1%	-1.4

Limited to ClpP mod, D2 potentiator and gsp antagonist, for three of the compounds above:
structure	ClpP mod	D2 potentiator	gsp antagonist
COc1ccc(CC(=O)Oc2ccc(C(C)(C)C)cc2)cc1S(=O)(=O)N1CCOCC1	1.3%	-6	-23%
Cc1ccc(S(=O)(=O)NCCC(=O)OCC(=O)N(Cc2ccccc2)C(C)(C)C)cc1C	1.4%	0	-20%
Cc1cc(Cl)c2oc(C(=O)N(C)CCCCN3CCOCC3)c(C)c2c1	.	-24	-1%

(listing goes on)
SMILES	TRPV1 PAM	gsp agonist	D2 potentiator	Sfp PPTase inh	ClpP mod	gsp antagonist	Menin-MLL FL inh
Cc1ccc(S(=O)(=O)C(C#N)c2nc3ccccc3nc2N2CC(C)OC(C)C2)cc1C (stereo unspecified)	0	0%	-4	13%	?	40µM*	?
CCc1cccc(NC(=O)CCc2nc(-c3cccs3)no2)c1	2	-21%	-5	19%	-2.1%	-15%	-5.8
COc1ccc(S(=O)(=O)Nc2ccncc2)c(C)c1C	5	10%[15.4 µM]	-3	89µM*	.	6%	-3.0
CCOC(=O)N1CCN(C(=O)C2c3cc(OC)c(OC)cc3C(=O)N3CCc4ccccc4C23)CC1 (stereo unspecified)	-5	2%	-19	22%	-0.3%	-5%	3.8
Cc1cc(C)n2nc(C(=O)OCC(=O)Nc3ccc4c(c3)OCCO4)nc2n1	-2	1%	-2	.	-4.2%	6%	.
COc1ccc(CCNc2cc(N3CCN(C(=O)c4ccccc4OC)CC3)ccc2[N+](=O)[O-])cc1OC	.	-5%[15.4 µM]	-1	.	.	-4%	.
CCCc1cc(=O)oc2cc(OCc3ccc(C(=O)O)cc3)ccc12	16	13%[15.4 µM]	2	-4%	-1.9%	-15%	2.0
COc1cc(NC(=S)NC(=O)c2ccco2)ccc1NC(=O)C(C)C	-15	13%[15.4 µM]	4	?	.	-52%	0.9
O=C(NCC1CCCO1)c1cccc(S(=O)(=O)N2CCOCC2)c1 (stereo unspecified)	6	6%	-14	18%	0.6%	-9%	.
CN(C)C(=N)c1n[nH]nc1SCc1ccc(Cl)c(Cl)c1	7	-5%[15.4 µM]	1	1%	0.5%	-2%	-1.2
Cc1cccc(/C=N/NC(=O)c2cccc(Cl)c2)n1	-4	26%	-3	4%	.	6%	3.6
O=C(O)C[C@@H]1C(=O)O[C@@H]2C(COC(=O)c3cc(O)c(O)c(O)c3)O[C@@H](OC(=O)c3cc(O)c(O)c(O)c3)[C@@H](OC(=O)c3cc(O)c(O)c4c3[C@H]1[C@H](O)C(=O)O4)[C@H]2OC(=O)c1cc(O)c(O)c(O)c1 (stereo partly specified)	-14	.	.	45µM*	.	.	12
CCCCCC(=O)N1C[C@H](n2cc(C3CC3)nn2)[C@@H](O)C[C@@H]1c1ccc(C)cc1	.	?	2	.	-0.5%	.	.
COCCN1C(=O)C(=O)/C(=C(/O)c2ccc(S(=O)(=O)N3CCOCC3)cc2)C1c1cccc(OC)c1 (stereo unspecified)	-5	-11%	-7	-20%	-2.1%	11%	-6.8
CCc1cc(CNC(=O)C2CCC(=O)N(CCc3cccc(F)c3)C2)on1 (stereo unspecified)	0	-19%	-12	13%	-20%	3%	-6.8
COC(=O)c1ccccc1NC(=O)CN1CCC(n2nnc3cc(C)ccc32)CC1	0	.	.	-2%	.	.	1.9
O=C(O)c1cnn2c(C(F)F)cc(C(F)F)nc12	11	-29%	18	6%	-3.3%	5%	3.1
CN(CC(=O)Nc1ccccc1Cl)C(=O)COC(=O)c1ccc(Cl)nc1	13	0%	-2	.	-1.3%	1%	.
CCc1ccccc1N(C(=O)CNC(=O)c1ccco1)C(C(=O)NC1CCCC1)c1cccnc1 (stereo unspecified)	8	-23%[15.4 µM]	-10	19%	.	-1%	.
COc1cc(C2=NOC(C(=O)N3CCN(c4ccc(F)cc4)CC3)C2)cc(OC)c1OC (stereo unspecified)	-4	1%	-12	6%	-3.5%	3%	?

Further compounds follow:
Screens by letter: A = TRPV1 PAM; B = gsp agonist; C = D2 potentiator; D = Sfp PPTase inh; E = ClpP mod; F = gsp antagonist; G = Menin-MLL FL inh
CC(=C\c1ccccc1)/C=C1/SC(=S)N(C(C(=O)O)C(C)C)C1=O (stereo unspecified)
  A: 1; B: -6%; C: -6; D: -6%; E: .; F: -15%; G: 11

c1ccc(-c2noc(C3CCCCC3)n2)nc1
  A: -7; B: 0%; C: 3; D: 12%; E: -1.5%; F: 11%; G: 6.1

COc1ccc(C=C2c3ccccc3C(=O)c3ccccc32)c(OC)c1
  A: -6; B: .; C: .; D: -5%; E: .; F: .; G: -0.9

Cc1ccc(-c2nnn(CC(=O)N(c3ccc4c(c3)OCCO4)C(C(=O)NCC3CCCO3)c3ccc(F)cc3)n2)o1 (stereo unspecified)
  A: -11; B: -8%[15.4 µM]; C: -15; D: 20%; E: .; F: .; G: -0.8

COc1cccc(C2CC(c3ccccc3Cl)n3ncnc3N2)c1 (stereo unspecified)
  A: 3; B: 2%; C: 8; D: -14%; E: -0.5%; F: 21%; G: -1.8

O=C(Nc1cccc(OCC(=O)N2CCOCC2)c1)c1ccc(C(F)(F)F)cc1
  A: 2; B: -5%; C: 4; D: 24%; E: .; F: 2%; G: 0.4

Cc1[nH]n(-c2ccccc2)c(=O)c1/C=N/c1nn[nH]n1
  A: -2; B: 18%[15.4 µM]; C: -7; D: -4%; E: .; F: -2%; G: 0.4

Cc1ccc(S(=O)(=O)N2CCOCC2)cc1NC(=O)COC(=O)COc1cccc2c1OC(C)(C)C2
  A: 8; B: 11%[15.4 µM]; C: -1; D: .; E: .; F: -6%; G: .

CN1CCN(c2nc3nonc3nc2N2CCN(C)CC2)CC1
  A: 14; B: -4%; C: 9; D: 12%; E: -0.8%; F: 20%; G: -6.9

COC(=O)C(CCC(=O)CN1C(=O)c2ccccc2C1=O)N1C(=O)c2ccccc2C1=O (stereo unspecified)
  A: .; B: 32%; C: -7; D: .; E: 0.3%; F: .; G: .

COc1cccc(-c2noc(CCC(=O)Nc3cccnc3)n2)c1
  A: 2; B: -43%[inhibitor]; C: -5; D: 7%; E: -10%; F: -9%; G: 9.1

C[C@H]1CN([C@@H](C)CO)C(=O)CCCn2nncc2CO[C@@H]1CN(C)Cc1ccc(Cl)c(Cl)c1
  A: .; B: -79%[inhibitor]; C: -1; D: .; E: 0.4%; F: .; G: .

Cn1cc(/C=C/c2nc3ccccc3c(=O)n2-c2cccc([N+](=O)[O-])c2)c2ccccc21
  A: 7; B: -12%; C: -11; D: -1%; E: -9.1%; F: -12%; G: 7.2

CCN(CC)Cc1ccc(NC(=O)c2sc3cc(Cl)ccc3c2Cl)cc1
  A: -1; B: 0%[15.4 µM]; C: -11; D: -21%; E: 0.4%; F: 5%; G: 4.4

COc1cc(/C=N/O)ccc1OCc1ccc([N+](=O)[O-])cc1
  A: 4; B: -17%; C: 11; D: 21%; E: 0.5%; F: -6%; G: 6.1

CSCCC(NS(=O)(=O)c1ccccc1F)C(=O)NCC(c1ccco1)N(C)C (stereo unspecified)
  A: .; B: 6%; C: -5; D: .; E: .; F: 11%; G: .

O=C(CN(Cc1ccccc1)C(=O)CCC(=O)Nc1ccccn1)NCCc1ccccc1
  A: 19; B: 12%; C: -6; D: 11%; E: .; F: 8%; G: -1.4

CC1c2[nH]c3ccccc3c2C[C@H]2C(=O)N(CCCN(C)C)CC(=O)N12 (stereo partly specified)
  A: 1; B: 8%[15.4 µM]; C: -5; D: 5%; E: -2.2%; F: 9%; G: -3.0

CC(Oc1cccc(Cl)c1)c1ccnc2nc(/N=C/N(C)C)nn12 (stereo unspecified)
  A: -12; B: 12%; C: -3; D: 9%; E: .; F: 2%; G: -0.9

COc1ccc(N2CCN(C(=O)c3ccc(-n4nc(C)cc4C)cc3)CC2)cc1
  A: 0; B: 3%; C: 0; D: -2%; E: -0.6%; F: 1%; G: 5.0
